# PINK1 expr mod = A Quantitative High throughput Screen to Identify Chemical Modulators of PINK1 Expression | PINK1 immunofluorescence, high-content cytometry, 24 h | Potency, µM (highest dose often 76.6 µM), for the others: at the highest dose activation (PINK1 increase), usual class: activators | 410,000 compounds, 0.2% hits | AID 624263, 2012; active = well fitted activation curve with a large enough effect; inconclusive = small, poorly fitted or top-dose-only effect; inactive = flat fitted curve, though single readings scatter; cell line not stated here;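 also: % of control where 0% means no effect; nearly all actives have a fitted effect of over 65% in size; a mitochondrial uncoupler was the plate control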
#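 Stable cell line treated 24 h with compounds at 5 concentrations (CCCP controls), then fixed and immunostained for PINK1 plus nuclear and cell stains; PINK1 immunofluorescence quantified by laser-scanning microplate cytometry.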
# * = called active by the depositor; ? = inconclusive. Potency is read from the fitted curve at half-maximal effect. The list is partial; the hit share may differ from the screen's.
mol,PINK1 expr mod
Cc1nc(-c2cccc(S(=O)(=O)N3CCC(C(=O)NCc4ccccc4)CC3)c2)no1,-0.9%
COc1ccccc1NC(=O)CSc1nnc(-c2nonc2NC(C)=O)n1-c1ccccc1,-0.4%
Cc1ccc(CNS(=O)(=O)c2ccc3c(c2)CCN3S(C)(=O)=O)cc1,4.6%
CCOc1ccccc1CN1CCN(S(=O)(=O)c2ccccc2)CC1,-1.0%
CCOC(=O)c1cc(OC(=O)c2cc(Cl)ccc2OC)n(-c2ccccc2)n1,0.1%
Cc1nc2c(c(C)nn2C(C)(C)C)c(C)c1CCC(=O)Nc1ccc(F)cc1,4.0%
Cc1cc(Nc2cccc(C(F)(F)F)c2)nc2ccc(NC(=O)Cc3ccc(Cl)cc3)cc12,?
CCn1cc(S(=O)(=O)c2ccccc2)c(=O)c2cc(F)c(N3CCCCCC3)cc21,-1.9%
COc1ccc2c(c1)cc1c(=O)n(CC(=O)NCCc3ccccc3)nc(C)n12,0.0%
CN(C)C(=O)c1ccc(NC(=O)Cn2nc(-c3ccccc3)c3ccccc3c2=O)cc1,2.2%
CC(C)Cc1nc2cc(NS(=O)(=O)N(C)C)cc(C(=O)N3CCN(c4ccccc4)CC3)c2n1C,0.3%
Cc1nc(-c2ccc(S(=O)(=O)N3CCN(c4ccccc4F)CC3)cc2)co1,-4.3%
COc1ccc2c(c1)CC(C(=O)NCCc1ccc(S(N)(=O)=O)cc1)CO2 (stereo unspecified),0.4%
O=C(CCSCc1cccc(Cl)c1)N1CCN(c2ccc(Cl)cc2)CC1,-0.9%
Cc1cc(I)ccc1Nc1nc(NCCN2CCOCC2)nc(N2CCOCC2)n1,-0.4%
Cc1ccc(-c2nc3sc(CCNC(=O)c4ccc(Br)o4)c(C)n3n2)cc1,0.7%
COc1cccc(CNC(=O)c2ccc3nc(-c4ccccc4)c(-c4ccccc4)nc3c2)c1OC,2.9%
CCOCCc1nn2c(=O)cc(COC(=O)c3ccc(NC(=O)C4CCCCC4)cc3)nc2s1,2.4%
COCC(=O)Nc1cc(C(=O)N2CCCC(C(C)=O)C2)cc2nc(-c3ccccc3)n(C)c12 (stereo unspecified),0.2%
COc1cc(OC)c(NC(=O)Cn2c(=O)oc3cc(S(=O)(=O)N4CCCC4)ccc32)cc1Cl,1.0%

# (next part)
mol,PINK1 expr mod
COc1ccc(CCNc2ncnc3c2nnn3C)cc1OC,3.1%
CCOC(=O)C1CCN(C(c2ccc(C)cc2)c2sc3nc(-c4ccco4)nn3c2O)CC1 (stereo unspecified),-0.6%
CCOc1ccc(N2CC(c3nc4ccccc4n3CCOc3ccc(CC)cc3)CC2=O)cc1 (stereo unspecified),1.0%
COc1cccc(-c2noc(COc3ccc(C(C)(C)C)cc3)n2)c1,-1.2%
CC(C)C(NC(=O)c1ccoc1)c1nnc2n1CCN(C(=O)/C=C/c1ccc(F)cc1)CC2 (stereo unspecified),-0.6%
CCc1nn2c(=O)cc(COC(=O)c3ccc(NC(=O)C4CCCCC4)cc3)nc2s1,?
FC(F)(F)c1cc(-c2cccc(Br)c2)nc2ncnn12,-0.9%
CCOC(=O)c1cc(-c2ccccc2)n(CCCC(=O)Nc2ccc(C)c(C)c2)c1C,-0.1%
COc1ccc(-c2nc3ccccc3s2)cc1NC(=O)c1cccc([N+](=O)[O-])c1C,-2.4%
COc1cccc(CN2C(=O)c3ccccc3Sc3ccc(C(=O)N(C)Cc4ccccc4)cc32)c1,2.5%
O=C(NNc1ncnc2c1cnn2-c1ccccc1)c1cccc(Cl)c1,4.2%
COc1ccc(CCNc2nc3c(-c4cccc(C(F)(F)F)c4)nnn3c3ccccc23)cc1OC,1.0%
COc1cccc(-c2nc3cc(SC)ccc3cc2CN(C(=O)c2csc(C)n2)C2CC2)c1,0.7%
COc1ccc(CNC(=O)c2cc3oc4ccccc4c3n2C)cc1OC,1.0%
COc1ccc(-n2c(SCC(=O)Nc3nnc(C)s3)nc3c([nH]c4ccccc43)c2=O)cc1,1.2%
CCCCOC(=O)c1ccc(NC(=O)c2ccc3c(c2)CCN3S(=O)(=O)c2ccccc2)cc1,2.2%
COc1ccc(N2CCN(S(=O)(=O)c3ccc(C4CCCCC4)cc3)CC2)cc1,0.4%
CCOC(=O)c1[nH]c(C)c(CCC(=O)N2CCN(c3ccc(Cl)cc3)CC2)c1C,1.1%
Cc1cccc(-c2nc3nc(C)cc(NC(C)c4ccccc4)n3n2)c1 (stereo unspecified),0.3%
O=[N+]([O-])c1cc(-c2nc(-c3ccccc3)no2)ccc1NCC1CCCO1 (stereo unspecified),2.0%

# (listing goes on)
mol,PINK1 expr mod
CCOc1ccccc1C(=O)Nc1ccc2nc(N(CC)CC)cc(C)c2c1,1.6%
COC(=O)c1ccc(-c2cccc3c2OC(CNC(=O)c2ccc4c(c2)OCCO4)C3)nc1 (stereo unspecified),-0.3%
COc1ccc(-c2cc(C(F)(F)F)n3nc(C(=O)Nc4ccc(Cl)cc4C(F)(F)F)cc3n2)cc1OC,0.7%
Cc1ccc(-c2csc(-c3c(N)c(C(=O)c4ccc5c(c4)OCO5)n4ccccc34)n2)cc1C,0.6%
COc1ccc2cc(-c3cn4c(n3)sc3cc(F)ccc34)c(=O)oc2c1,-0.6%
Cc1ccc(C)c(N2CCN(c3nc4ccc(C)cc4nc3-n3nc(C)cc3C)CC2)c1,1.5%
O=C(NCCS(=O)(=O)N1CCN(c2ccc(F)cc2)CC1)c1cccc(C(F)(F)F)c1,0.4%
COc1cc(NC(=O)CCS(=O)(=O)c2ccc(Br)cc2)cc(OC)c1,-1.0%
COc1ccc(-c2nc(CSc3nnc(C)n4c3cc3occc34)c(C)o2)cc1OC,4.3%
CC(C)N(Cc1nc(-c2ccc(Cl)cc2)no1)C(=O)c1ccco1,2.8%
Cc1ccc(NC(=O)CSc2nc(-c3ccc(F)cc3)cc(C(F)(F)F)c2C#N)cc1,1.5%
CCN(CC)c1ccc(NC(=O)c2c(C)nn(-c3ccc(F)cc3)c2-n2cccc2)c(C)c1,3.9%
Cc1cc(C)c(NC(=O)CN2c3ccccc3S(=O)(=O)c3ccccc32)c(C)c1,0.5%
Cc1ccc(-c2nc3sccn3c2Nc2ccccc2C)cc1,3.3%
COc1ccc2c(c1)c(=O)c(S(=O)(=O)c1ccc(Cl)cc1)cn2Cc1cc(C)ccc1C,4.5%
Cc1c(Cl)cccc1NC(=O)COCc1cc(-c2ccc3c(c2)OCO3)on1,0.6%
O=C(Cn1cnc2c(nc3n2CCCCC3)c1=O)Nc1ccc(F)c(Cl)c1,1.5%
Cc1ccc(Sc2c(C)nn(C(=O)c3ccc(Cl)cc3)c2C)cc1,6.7%
COc1cc(NC(=O)CSc2nc3nc(C)c(Cc4ccccc4)c(C)n3n2)cc(OC)c1,0.9%
CCc1ccccc1NC(=O)Nc1cc(C(=O)NCc2ccc(OC)cc2)ccc1N1CCCC1,?

# New compounds follow.
SMILES	PINK1 expr mod
Cc1cccc(OCC(=O)Nc2cccc(C(=O)OCc3cc(=O)n4nc(C(C)C)sc4n3)c2)c1	-1.4%
O=C1CCSc2ccc(S(=O)(=O)Nc3ccc(Cl)c(C(F)(F)F)c3)cc2N1	1.2%
COc1cc(C(=O)Nc2ccc3oc(-c4ccccc4)nc3c2)cc(OC)c1OC	-1.0%
O=c1c2ccccc2n(Cc2c(F)cccc2Cl)c(=O)n1Cc1ccccc1	0.1%
CCOc1ccc(N(C)C(=O)CS(=O)(=O)c2cccc3nsnc23)cc1	-5.4%
COc1ccc(C2=C(Nc3ccc(C)c(C)c3)c3ccccc3C2=O)cc1	4.3%
O=S(=O)(c1ccc2c(c1)CCN2)N1CCCCCC1	-0.6%
CCn1c(CN2CCCCC2)nc2cc(NC(=O)COc3ccc([N+](=O)[O-])cc3)ccc21	0.0%
CCc1ccc(N2C(=O)CN(S(=O)(=O)CC)CC2(C)C(=O)NC2CCCCC2)cc1 (stereo unspecified)	-0.9%
O=C(NCC1Cc2cc(F)cc(-c3cnccn3)c2O1)c1cccc(-c2ccccc2F)c1 (stereo unspecified)	1.0%
Cc1c(C(=O)OC2CCC(C)CC2)[nH]c2c1C(=O)CC(c1ccc(F)cc1)C2 (stereo unspecified)	3.0%
CSc1cccc(NS(=O)(=O)c2cn(C)c(C)n2)c1	-4.2%
CC1=C(c2ccc(C)c(C)c2)S(=O)(=O)N=C1N1CCC(C(=O)NCCc2ccc(Cl)cc2)CC1	3.2%
O=C(CSc1nnc(-c2ccc(F)cc2)o1)N1CCCc2ccccc21	0.3%
COc1ccc(S(=O)(=O)NCC(c2ccc(N(C)C)cc2)N2CCc3ccccc32)cc1OC (stereo unspecified)	0.0%

# 3 compounds out of the list above, ordered by the value under PINK1 expr mod, highest first:
SMILES	PINK1 expr mod
O=C1CCSc2ccc(S(=O)(=O)Nc3ccc(Cl)c(C(F)(F)F)c3)cc2N1	1.2%
O=C(CCSCc1cccc(Cl)c1)N1CCN(c2ccc(Cl)cc2)CC1	-0.9%
COc1cc(NC(=O)CCS(=O)(=O)c2ccc(Br)cc2)cc(OC)c1	-1.0%

# Next compounds follow.
SMILES	PINK1 expr mod
COc1ccc2nc(N3CCN(C(=O)CS(=O)(=O)c4ccc(C)cc4)CC3)sc2c1	-1.6%
O=C(CN1N=C(c2ccc(Cl)cc2)CCC1=O)NCCc1ccccc1	0.8%
Cc1ccc(N(CC(=O)NCCc2ccccc2C)S(=O)(=O)N(C)C)cc1	-0.1%
Cc1ccc(-c2ccc(=O)n(CC(=O)NCCc3ccc(Cl)cc3)n2)cc1	1.7%
CN1c2ccccc2-c2nc(SCC(=O)Nc3ccccc3)ncc2S1(=O)=O	0.6%
COc1cccc(CNCc2cccn2-c2nnc(N3CCN(c4ccccc4)CC3)s2)c1	15.2%
CCN(CC)c1nn2c(=O)c(C(=O)NCCc3ccccc3)cnc2s1	-0.6%
O=C(NCCN1CCN(c2cccc(Cl)c2)CC1)C1COc2ccccc2C1 (stereo unspecified)	-0.3%
Cc1c(C(=O)Nc2cccc(Cl)c2)oc2ccc(S(=O)(=O)N3CCOCC3)cc12	0.6%
CCOC(=O)C1CCN(c2c(C(=O)c3ccc(OC)cc3)cnc3ccccc23)CC1	2.9%
CCOc1ccc(-c2cc(C(=O)NCCc3ccccc3)c3c(-c4ccc(C)cc4)[nH]nc3n2)cc1	4.8%
CCOC(=O)c1ccccc1NC(=O)N1CCN(Cc2cc(=O)n3nc(-c4ccccc4)sc3n2)CC1	1.7%
CCOc1ccccc1NC(=O)CCc1c(C)nn(-c2ccc(N3CCOCC3)nn2)c1C	1.6%
COc1cc(C(=O)N2CCN(CCc3ccccn3)CC2)cc(OC)c1OC	5.6%
COCc1cc(C)n(CC(=O)Nc2ccc(NC(C)=O)cc2)c(=O)c1C#N	-1.7%

# Random excerpt: six records from the list.
SMILES	PINK1 expr mod
CCOc1ccccc1NC(=O)CCc1c(C)nn(-c2ccc(N3CCOCC3)nn2)c1C	1.6%
COc1ccc2nc(N3CCN(C(=O)CS(=O)(=O)c4ccc(C)cc4)CC3)sc2c1	-1.6%
COc1cccc(CNCc2cccn2-c2nnc(N3CCN(c4ccccc4)CC3)s2)c1	15.2%
Cc1c(C(=O)Nc2cccc(Cl)c2)oc2ccc(S(=O)(=O)N3CCOCC3)cc12	0.6%
Cc1ccc(-c2ccc(=O)n(CC(=O)NCCc3ccc(Cl)cc3)n2)cc1	1.7%
O=C(NCCN1CCN(c2cccc(Cl)c2)CC1)C1COc2ccccc2C1 (stereo unspecified)	-0.3%

# Next section
SMILES	PINK1 expr mod
Cc1ccc(Cl)cc1N1CCN(C(=O)Cc2c(C(=O)O)c(C)cn2C)CC1	-0.6%
CS(=O)c1ccc(/C=C2\C=Cc3ccccc32)cc1 (stereo unspecified)	-0.4%
CCc1nn2c(=O)cc(COC(=O)c3ccco3)nc2s1	1.1%
COc1ccc(Nc2cc(C)c3cc(NC(=O)COc4cccc(C)c4)ccc3n2)cc1	3.4%
Cc1ccc(NC(=O)Cn2cc(C(=O)C3CCCCC3)c3ccccc32)c(C)c1	-1.2%
O=C(Cn1cc(C(=O)c2ccco2)c2ccccc21)Nc1ccccc1Cl	4.0%
Cc1cccc2sc(N(Cc3cccnc3)C(=O)c3cccs3)nc12	?
Cc1ccc(-c2nc3cccc(C)n3c2Nc2ccc3c(c2)OCO3)o1	3.7%
COc1ccc(CNC(=O)c2ccc3c(c2)NC(=O)C(CS(=O)(=O)Cc2ccccc2Cl)N3)cc1 (stereo unspecified)	-4.6%
CCc1ccccc1NC(=O)Nc1ccc2snnc2c1	?
COc1ccc(NC(=O)N2CCN(c3cc(-c4noc(C)n4)ccc3C)CC2)c(OC)c1	8.9%
COc1cccc(-c2cc(C(=O)Nc3cc(OC)c(OC)c(OC)c3)on2)c1	6.1%
CCn1c(C(=O)N2CCCC(C(=O)N3CCN(c4ccccc4)CC3)C2)cc2sccc21 (stereo unspecified)	1.4%
CCc1ccc(-n2c(=O)c3c4c(sc3n(Cc3ccccc3C#N)c2=O)CCC4)cc1	-0.2%
COc1ccc(OCCCn2c(=O)oc3ccc(C)cc32)cc1	0.8%

# Compounds listed so far that have a nitro group on carbon, in the order listed:
SMILES	PINK1 expr mod
COc1ccc(-c2nc3ccccc3s2)cc1NC(=O)c1cccc([N+](=O)[O-])c1C	-2.4%
O=[N+]([O-])c1cc(-c2nc(-c3ccccc3)no2)ccc1NCC1CCCO1 (stereo unspecified)	2.0%
CCn1c(CN2CCCCC2)nc2cc(NC(=O)COc3ccc([N+](=O)[O-])cc3)ccc21	0.0%

# (more compounds)
SMILES	PINK1 expr mod
CCN(C(=O)CSc1nc2ccccc2n1CC(=O)N1CCCC(C)C1)c1ccccc1 (stereo unspecified)	-0.1%
Cn1cc(C(c2ccccc2)c2ccc(Cl)s2)c2ccccc21 (stereo unspecified)	6.5%
Cc1cc2oc(C(=O)N(Cc3ccc(N(C)C)cc3)CC3CCCO3)c(C)c2cc1Cl (stereo unspecified)	6.5%
O=C(NCCc1csc(-c2cccc(F)c2)n1)c1cccs1	3.6%
CCOC(=O)c1noc2ncn(CC(=O)Nc3cccc(Cl)c3)c(=O)c12	0.6%
CCOC(=O)c1c(C)[nH]c(C)c1S(=O)(=O)N1CCC(C(=O)Nc2ccc(C)cn2)CC1	0.2%

# Assay outcomes (PubChem BioAssay)
